Compound activity deposited in PubChem by National Center for Advancing Translational Sciences (NCATS).
FEN1 inh: qHTS Assay for the Inhibitors of Human Flap endonuclease 1 (FEN1) | P39748 | Recombinant FEN1 flap cleavage, fluorescence, 15 min | Potency, µM (series often up to 114 µM), for inactives: at the highest dose activity change, negative = inhibition, most hits filed as inhibitors | 390,000 compounds, 0.35% hits | AID 588795, 2011; also: nearly all actives have a fitted effect of over 65% in size
Target sequence (P39748 whole entry, looked up): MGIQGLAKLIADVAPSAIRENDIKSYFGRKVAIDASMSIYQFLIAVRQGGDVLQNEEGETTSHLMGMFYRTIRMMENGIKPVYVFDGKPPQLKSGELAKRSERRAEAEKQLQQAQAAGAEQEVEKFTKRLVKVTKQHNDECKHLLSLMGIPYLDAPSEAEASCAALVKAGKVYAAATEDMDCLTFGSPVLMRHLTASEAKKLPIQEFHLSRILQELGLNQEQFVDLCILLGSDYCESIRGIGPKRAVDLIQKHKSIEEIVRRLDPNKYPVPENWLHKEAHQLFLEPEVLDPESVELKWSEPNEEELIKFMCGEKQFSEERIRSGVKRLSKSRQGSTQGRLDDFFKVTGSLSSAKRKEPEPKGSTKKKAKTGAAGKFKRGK
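In this screen, 50 nM flap DNA substrate was added to 10 nM FEN1 pretreated with compound for 15 min at room temperature; cleavage was followed with reads at 0 and 15 min, and Hill fitting gave concentration–response parameters.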
N370S GC mod: qHTS Assay for Inhibitors and Activators of N370S glucocerebrosidase as a Potential Chaperone Treatment of Gaucher Disease | AID 2101, 2009 | N370S GC spleen homogenate, 4MU-glucoside fluorescence | 330,000 compounds, 0.092% hits | Lysosomal acid glucosylceramidase (Homo sapiens), P04062 | Potency, µM (top dose mostly 59.4 µM), inactives show top-dose activity change, negative = inhibition, most hits filed as inhibitors;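 also: 0% = full enzyme activity and -100% = no enzyme basal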
Starred values were filed as active, the others as inactive; ? = inconclusive; . = no result given; & = joins results of further samples; [ ] = remark or other dose. Calls follow the shape of the dose curve; as a rule, active = well fitted curve in the direction sought with a large enough effect; inconclusive = small, poorly fitted or top-dose-only effect, or another doubt; inactive = no such curve, though single readings can be large; an effect the other way counts as inactive or inconclusive. Unless noted, % is scaled to controls: 0 for no effect and ±100 for the full control effect; potency is read from the fitted curve at half-maximal effect.

Value order – FEN1 inh | N370S GC mod
- CN(C(=O)COC(=O)CNC(=O)c1cccs1)c1c(N)n(Cc2ccccc2)c(=O)[nH]c1=O
    -10% | .
- O=C1CC(C2CCCO2)C(=O)N1c1ccccc1 (stereo not given)
    -3% | 7%
- Cc1ccc(C)c(OCc2cc(C(=O)N(C)Cc3nccn3C)no2)c1
    7% | -2%
- C[C@H]1CN=C(N(C)C)N1CCc1ccc(F)cc1
    18% | -8%
- COc1ccccc1C(C#N)N1N=C(C)CC1(C)C (stereo not given)
    -1% | -3%
- CCCc1noc2c1/C(=N\O)CCC2
    -5% | 4%
- COC(=O)Cc1cc(=O)n2[nH]c(C(F)(F)F)nc2n1
    -1% | 4%
- O=C(COC(=O)c1cc(=O)[nH]c(=O)[nH]1)Nc1ccccc1F
    6% | .
- COc1ccc(C2C(C(=O)OCC(=O)Nc3ccc(C)cc3)CCC(=O)N2c2ccc(OC)cc2)cc1 (stereo not given)
    -1% | -11%
- C=CCNc1nc(Nc2ccc(OC)cc2)nc(OCC)n1
    12% | -2%
- Cc1ccc(OC(=O)Nc2ccccc2)cc1
    -3% | 1%
- COc1cc(/C=C2\SC(=O)N(CCN)C2=O)ccc1OS(=O)(=O)c1cc(C)ccc1C
    -27% | ?
- Cc1cccc(C)c1NS(=O)(=O)c1ccc(F)cc1
    5% | 28%
- c1ccc(Nc2nn[nH]n2)cc1
    -12% | 6%
- COc1ccc(NC(=O)c2cc(-c3cc(OC)c(OC)c(OC)c3)nc3ccccc23)cc1OC
    -9% | ?
- NNc1nc2ccccc2nc1C(F)(F)F
    1% | 8%
- O=C(NC1CCCCC1)C1CCCN1S(=O)(=O)c1ccc(F)cc1 (stereo not given)
    -11% | 2%
- FC(F)(F)C1=CC(c2ccccc2)=NCCN1
    -6% | 10%
- O=S(=O)(NCc1ccco1)c1ccc(S(=O)(=O)N2CCCCC2)cc1
    1% | 7%
- CC(C)(C)C(=O)NC1CCN(CC(=O)Nc2ccc3c(c2)OCO3)CC1
    14% | -14%
- Cc1cccc(N2N=C(C(=O)N3CC(=O)Nc4ccccc43)CCC2=O)c1
    -5% | -20%
- CCN(C[C@H]1N[C@@](Cc2ccccc2)(C(=O)OC)[C@H]2C(=O)N(C)C(=O)[C@@H]12)C(=O)c1ccc(C(C)(C)C)cc1
    -5% | .
- Cc1cccc2sc(NC(=O)C3CCCO3)nc12 (stereo not given)
    -1% | 1%
- COc1ccccc1C(=O)NC1CCCc2ccccc21 (stereo not given)
    7% | -3%
- COc1ccc(Cl)cc1NC(=O)Cn1ncc2c3ccccc3n(C)c2c1=O
    -3% | .
- CCN(CC)c1ccc(/C=c2\sc3nc4ccccc4n3c2=O)c(O)c1
    -12% | 3%
- COc1ccc(-n2c(=S)[nH]c3cc(C(=O)Nc4ccccc4OC)ccc3c2=O)cc1
    . | 3%
- O=C(OCC(=O)c1ccc(S(=O)(=O)N2CCCC2)cc1)C1=COCCO1
    8% | 7%
- COc1cccc(/C=C2/Oc3ccccc3N(CC(=O)NCC3CCCO3)C2=O)c1 (stereo not given)
    -10% | ?
- COc1ccc(CNC(=O)C(C)OC(=O)C23CC4CC(CC(O)(C4)C2)C3)cc1 (stereo not given)
    -7% | 4%
- CC1CCCC(C)N1C(=O)CN1CCN(c2nc(-c3ccc(F)cc3)cs2)CC1 (stereo not given)
    1% | -7%
- CC(C)CO/N=C1/C[C@@H](O)[C@@H](O)[C@@H]2[C@@H]3C(=O)N([C@@H](C)c4ccccc4)C(=O)[C@H]3CC[C@@H]12
    . | 5%[12.8 µM]
- Cc1ccccc1C(=O)c1cccn1CC(=O)NC(C)c1ccccc1 (stereo not given)
    15% | 6%
- O=C(Cc1ccccc1)NN1C(=O)C2C3C=CC(C3)[C@@H]2C1=O (stereo not given in full)
    -1% | 3%
- O=C(NC1CC(=O)N(c2ccc(F)cc2)C1)c1ccc(S(=O)(=O)N2CCCC2)cc1 (stereo not given)
    -5% | .
- O=C(O)c1cc(NC(=O)c2ccccc2F)cc(NC(=O)c2ccccc2F)c1
    -3% | -15%
- CC(C)CNc1nc(S(=O)(=O)c2ccccc2)c(Cl)s1
    10% | 17%
- Cc1ccc(C)c(NS(=O)(=O)c2cc(C(=O)Nc3ccccc3-c3ccccc3)ccc2Cl)c1
    -12% | -8%
- COc1ccccc1N1CCN(C(=O)CCc2ccccc2)CC1
    13% | -8%
- CCc1nnc(NC(=O)c2ccc(S(=O)(=O)N3CCCC3)cc2)s1
    10% | -3%
- CCOC(=O)c1c(S(=O)(=O)NCC(=O)NCc2ccc(C)cc2)c(C)n(C)c1C
    -1%&6% | -15%
- Cc1cc(C)c2sc(NC(=O)c3ccc(S(=O)(=O)N4CCCC4)cc3)nc2c1
    -11% | .
- C=CCN(CC(=O)NC1CC1)S(=O)(=O)c1cccc(C(F)(F)F)c1
    7% | .
- Cn1ccc2cc(-c3ccc4ncnc(NCc5cccs5)c4c3)ccc21
    -10% | 4%
- CCN(CC)C(=O)CSc1nc2cc3c(cc2c(=O)n1Cc1ccc2c(c1)OCO2)OCO3
    -2% | -15%
- COC(=O)c1cc(Cl)c(NS(=O)(=O)c2ccccc2)cc1OC
    0% | 2%
- COc1ccc(Cl)cc1NC(=O)c1cc(S(=O)(=O)N(C)Cc2ccccc2)ccc1F
    12% | .
- CN(CC(=O)NCCCc1ccccc1)S(=O)(=O)c1ccc(Br)cc1
    1% | -5%
- COc1ccc(NC(=O)N2CCC(Cc3ccccc3)CC2)cc1
    9% | 25%
- C=CCSc1nnc(-c2nnc(SCC=C)n2-c2ccccc2)n1-c1ccccc1
    -5% | 21%

Going on with the list:
Value order – FEN1 inh | N370S GC mod
- CCOc1ccc(Cn2c3ccc(OC)cc3c3nc4ccccc4nc32)cc1
    6% | -18%
- COc1ccccc1N(C)S(=O)(=O)c1ccc(C(=O)Nc2ccc(N3CCOCC3)cc2)cc1
    -2% | -8%
- O=C(Nc1nccs1)C1CCN(S(=O)(=O)c2ccc(F)cc2)CC1
    27% | 1%
- CN1CCN(C(=O)CCc2nc3ccccc3n2-c2ccccc2)CC1
    -4% | 15%
- Cc1ccc(NS(=O)(=O)c2ccc(NC(=O)c3cccc(NC(=O)C(C)C)c3)cc2)cc1
    -20% | -10%
- O=C(O)C1C2C=CC(O2)C1C(=O)NCc1ccc(Cl)cc1 (stereo not given)
    -8% | 3%
- CCCCCCCCCCOCCC(=O)O
    . | 13%&-5%
- CC(=O)c1cc(C#N)c(NCc2ccccc2)nc1C
    2% | -3%
- CCCn1c(SCC(=O)c2ccc3c(c2)OCCO3)n[nH]c1=O
    5% | 5%
- CCC1=C2CC[C@H]3C(=O)NC(=O)[C@H]3[C@H]2[C@@]2(C)C(=NCC(=O)OC)OC(=O)N2C1=O
    . | 12%
- CC1(C)CC(N(Cc2ccco2)C(=O)Cc2ccccc2)CCO1 (stereo not given)
    -13% | -23%
- CCN(CC(=O)Nc1c(F)cccc1F)C(=O)Cc1c[nH]c2ccccc12
    -2% | .
- CCCCSC1=C(C#N)C(c2ccccc2C)CC(=O)N1 (stereo not given)
    -1% | -4%
- Cc1ccc(C(=O)N2CCCC(Nc3ccc(F)cc3)C2)cc1C (stereo not given)
    -20% | 2%
- CC1CCCCC1NC(=O)NC(=O)COC(=O)c1ccc(OC(F)F)cc1 (stereo not given)
    5% | -12%
- C[C@@]12C(=O)N(Cc3ccc(Cl)cc3)CC(=O)N1[C@H]1c3ccccc3OC[C@@H]1[C@@H]2c1ccccc1
    5% | .
- CS(=O)(=O)Nc1cccc(C2=NN(S(C)(=O)=O)C(c3ccc4c(c3)OCO4)C2)c1 (stereo not given)
    -8% | ?
- COC(=O)c1ccc(NC(=O)CSc2nc3c(c(=O)n(C)c(=O)n3C)n2Cc2ccccc2)cc1
    -7% | .
- COc1ccccc1NC(=S)N1CCN(c2ccccn2)CC1
    -5% | 12%
- CN(C)S(=O)(=O)Oc1ccccc1C(=O)Nc1cccc(C(F)(F)F)c1
    -15% | 5%

Record cards (already shown). Screens in order: FEN1 inh	N370S GC mod
`COc1ccccc1NC(=S)N1CCN(c2ccccn2)CC1` as listed: -5%	12%
`CC1CCCCC1NC(=O)NC(=O)COC(=O)c1ccc(OC(F)F)cc1` (stereo not given) as listed: 5%	-12%
`CC1(C)CC(N(Cc2ccco2)C(=O)Cc2ccccc2)CCO1` (stereo not given) as listed: -13%	-23%

The listing continues.
Value order – FEN1 inh | N370S GC mod
- COc1ccc(CN2CCN(CCCCOc3ccc(Cl)cc3)CC2)c(OC)c1OC
    3% | 5%
- O=C(c1ccc([N+](=O)[O-])cc1)N1CCC(Cc2ccccc2)CC1
    -9% | 4%
- C/C(=N\Nc1nc(N2CCOCC2)nc(N2CCOCC2)n1)c1cccs1
    -14% | 5%
- Cc1cccc(N2CCN(c3cc(C)nc4c(-c5ccc(Cl)cc5)c(C)nn34)CC2C)c1 (stereo not given)
    -2% | .
- Cn1cc(CN2CCCC(CO)(Cc3ccccc3)C2)c2ccccc21 (stereo not given)
    -1% | -2%
- CC(C)OC(=O)C(CC(=O)O)NCc1ccccc1 (stereo not given)
    -8% | 5%
- CCNC(=O)CC1C(=O)N(CC)C(=S)N1NC(=O)c1ccccc1 (stereo not given)
    3% | 3%
- COc1ccc(OC)c(NC(=O)Nc2cc(C(=O)O)ccc2C)c1
    2% | -3%
- CCO[C@H]1OC(C(=O)N2CCOCC2)=C[C@@H](c2coc3ccccc3c2=O)[C@@H]1CCCO
    -12% | 0%
- CCOC(=O)C(=O)Nc1cc(C)nn1-c1nc2ccccc2[nH]1
    -1% | 11%
- CCN1/C(=C/c2ccc3cccc(C)c3[n+]2CC)Sc2ccccc21
    40µM* | -10%
- CCO[C@@H]1OC(C(N)=O)=C[C@H](c2ccc(Br)cc2)[C@H]1CCCO
    21% | 3%
- Cc1nn(-c2ccccc2)c(-n2cccc2)c1C(=O)O
    4% | 8%
- Cc1ccccc1NC(=O)CN1C(=O)C(C)(C)c2ccccc21
    0% | .
- CCn1c2ccccc2c2cc(NC(=O)c3ccc(=O)oc3)ccc21
    16% | 9%
- CCCCS(=O)(=O)Nc1ccc(C(=O)NCC2CCCO2)cc1 (stereo not given)
    -8% | 4%
- C=CCNC(=O)CN(c1cc(Cl)ccc1OC)S(=O)(=O)c1ccc(C)c([N+](=O)[O-])c1
    4% | 4%
- COc1ccc2c(c1)c1c(c(=O)n(-c3ccc(F)c(Cl)c3)c(=O)n1Cc1ccccc1C)n2C
    -2% | .
- CC(C)(C)c1ccc(C(=O)OCc2c(-c3ccccc3)ncc3ccccc23)cc1
    -8% | .
- S=C(c1cn(Cc2ccc(Br)cc2)c2ccccc12)N1CCOCC1
    -5% | 5%

3 entries from above, field by field:
> CCO[C@@H]1OC(C(N)=O)=C[C@H](c2ccc(Br)cc2)[C@H]1CCCO
  FEN1 inh: 21% | N370S GC mod: 3%

> Cc1nn(-c2ccccc2)c(-n2cccc2)c1C(=O)O
  FEN1 inh: 4% | N370S GC mod: 8%

> Cc1ccccc1NC(=O)CN1C(=O)C(C)(C)c2ccccc21
  FEN1 inh: 0% | N370S GC mod: .

Additional compounds follow:
Value order – FEN1 inh | N370S GC mod
- COc1ccc2oc(C(=O)OCC(=O)Nc3cc(S(=O)(=O)N4CCOCC4)ccc3OC)c(C)c2c1
    7% | -22%
- CCOc1ccc(-c2nc3c(c(SCC(=O)N4CCCCC4)n2)Cc2cccc(OC)c2O3)cc1
    -1% | .
- COc1ccc(CNC(=O)c2ccc3c(O)c(S(=O)(=O)c4ccccc4)c(=O)[nH]c3c2)cc1
    -3% | .
- C=CC[C@@H](CC(=O)N[C@@H](CO)Cc1ccccc1)C(=O)NCCOC(=O)[C@@H](CC=C)CC(=O)OC(C)(C)C
    1% | .
- CCCN(CCC)CCCNC(=O)c1cc2c(=O)[nH]c3ccccc3c2n1C
    1%&1% | 1%
- CSc1cccc(NS(=O)(=O)c2cccs2)c1
    1% | -1%
- COc1ccc2c(C)cc(SCC(=O)Nc3cccnc3Cl)nc2c1
    -8% | 4%
- CC(C)(C)[C@H]1COC(=O)CCCC/C=C\C[C@H](CC(=O)N(CCO)Cc2ccccc2)C(=O)N1
    -7% | .
- c1ccc(Cn2nnnc2CN2CCCC2)cc1
    -11% | 5%
- Cc1cc(C)n(-c2n[nH]c(=O)c3ccccc23)n1
    -2% | -3%
- Cc1ccc(N2CC(c3nc4ccccc4n3CCC3CCCCC3)CC2=O)cc1 (stereo not given)
    17% | .
- CCOc1ccc(OCC)c(-n2cnnn2)c1
    14% | .
- CN1CCc2c(sc3nc(SCC(=O)N4CCOCC4)n(-c4ccc(Cl)cc4)c(=O)c23)C1
    14% | 10%
- Cc1cc(C)c(C)c(S(=O)(=O)N2CCN(C(=O)C3CSC4(C)CCC(=O)N34)CC2)c1C (stereo not given)
    3% | -9%
- COc1ccc(NC(=O)COCc2cc(-c3ccco3)on2)cc1
    -14% | .
- COc1ccc(C(=O)C[n+]2ccc(N)c(C)c2C)cc1
    49%[activator] | 6%
- CCOc1ccc(CNC(=O)c2ccc3[nH]c(C)c(C)c3c2)cc1OC
    11% | .
- c1ccc(CCc2nc(-c3ccccn3)no2)cc1
    3% | -12%
- Cc1c(C(=O)C(=O)N2c3ccccc3CC2C)c2ccccc2n1C (stereo not given)
    -17% | 16%

This is a subset; most or all hits stand in other tables.
